Screening data from PubChem BioAssay.
NPYLR7 agonist: activates Aedes aegypti NPYLR7 receptor; HEK293T NPYLR7/Galpha15, GCaMP6s calcium fluorescence; activation, % at 10 µM; actives 0.15% (n = 270,000); AID 1259423; in the data active = activation above about 40%;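 note: 0% = vehicle and 100% = reference agonist at the receptor; some compounds past the cut are filed as inactive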
NPYLR7 agonist max-min: further read-out of NPYLR7 agonist, marked with its call; activation, %; measured here: Max-Min RFU normalised activation; some inactives read as strong as hits;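 span of the calcium signal over five minutes; 0% = vehicle and 100% = native peptide agonist; compound fluorescence can raise it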
* marks the source's active call; other numbers are inactive results; & = joins results of further samples. A portion of the library. The share of hits here may be higher or lower than overall.

canonical_smiles	NPYLR7 agonist max-min	NPYLR7 agonist
COc1ccc(-n2ncc3c2CC(C)(C)CC3NC(=O)c2ccc(-n3cnnn3)cc2)cc1 (stereo not drawn)	-7	-8
COc1ccc(CC2(CCC(=O)N(C)Cc3nc4cc(C)c(C)cc4[nH]3)CCC(=O)N2)c(F)c1 (stereo not drawn)	16	16
CCNC(=O)C1(C)CCCN(Cc2ccc(Cl)cc2)C1 (stereo not drawn)	-3	1
CN(C)CC1(O)CCCN(C(=O)c2ccc(-c3cccc(F)c3)cc2)CC1 (stereo not drawn)	7	10
O=C(Nc1nnc(SCc2ccccc2F)s1)c1ccc(CN2CCOCC2)cc1	3	-7
CCc1nc2ccc(C(=O)Nc3ccc(OC)c(OC)c3)cn2c1N(C)Cc1nccn1C	-7	-4
Cc1cc(NC(=O)c2ccccc2)n(-c2nc3c(F)cccc3s2)n1	-13	-9
O=C(CSc1nnc2[nH]c(=O)cc(-c3ccccc3)n12)N1CCCCCC1	-3	-7
CCn1c(=NC(=O)C2CC2)sc2c(C)ccc(OC)c21	7	5
Cc1ccsc1CN1CCN(C)C2(CCN(C(=O)c3ccco3)CC2)C1	-11	-5

An excerpt from above in order of length of the SMILES, low to high:
canonical_smiles	NPYLR7 agonist max-min	NPYLR7 agonist
Cc1cc(NC(=O)c2ccccc2)n(-c2nc3c(F)cccc3s2)n1	-13	-9
CCc1nc2ccc(C(=O)Nc3ccc(OC)c(OC)c3)cn2c1N(C)Cc1nccn1C	-7	-4
COc1ccc(CC2(CCC(=O)N(C)Cc3nc4cc(C)c(C)cc4[nH]3)CCC(=O)N2)c(F)c1 (stereo not drawn)	16	16

(next part)
canonical_smiles	NPYLR7 agonist max-min	NPYLR7 agonist
C=C(C)CN1CCN(c2cc(C)nc3c(-c4ccc(C)cc4)c(C)nn23)CC1	3	4
COC(=O)c1cccc(C(=O)N2CCCC(Nc3ccc4c(c3)OCCO4)C2)c1 (stereo not drawn)	1	3
CCN1C2=C(C(=O)CCC2)C(c2ccc(OC)c(C(=O)O)c2)C2=C1CCCC2=O	-4	-4
CC(C)C1C2CCC(C2)C1N (stereo not drawn)	-13	-2
CCc1ccc(C(=O)N2CCN(c3cc(Oc4cccc(Cl)c4)ncn3)CC2C)cc1 (stereo not drawn)	9	10
COCCN(CC(=O)N(CCc1c[nH]c2ccccc12)Cc1ccc(C(F)(F)F)cc1)C(=O)C(C)Cl (stereo not drawn)	22	8
C=CCN1C(=O)C2(c3ccccc31)c1c(oc3ccccc3c1=O)C(=O)N2CC1CCCO1 (stereo not drawn)	-2	-3
O=C(CCCN1C(=O)C(=Cc2cccs2)SC1=S)NN1CCOCC1	4	5
Cc1cc(C)c(S(=O)(=O)N2CCN(c3nccc(-c4ccc(N5CCOCC5)cc4)n3)CC2)c(C)c1	-3	2
COc1cccc(OCc2ccccc2)c1C(=O)NCCc1ccc(O)cc1	-18	-13
CC(c1ccc(F)c(Cl)c1)N1CCC(C(=O)Nc2cnccn2)CC1 (stereo not drawn)	3&0	3&0
COCCn1c(C)cc(C(=O)CSc2cc(C)c3ccccc3n2)c1C	-7	-3
CC1(C)CC2=NN(c3ccccc3)P(=O)(Nc3ccccc3)C2=C(N2CCCCC2)C1 (stereo not drawn)	-2	-1
O=C1CCSc2ccc(F)cc21	3	4
O=C1c2cccc3c([N+](=O)[O-])ccc(c23)C(=O)N1c1cccc(O)c1	6	5
O=C(C1CC1)N1CCN(Cc2nc3cc(-c4ccc(Cl)cc4)sc3c(=O)[nH]2)CC1	-7	-2
Cc1cc(Oc2ncccc2C#N)ccc1NC(=O)C1CC2CCC1C2 (stereo not drawn)	-1	2
CC(C)CCNC(=O)c1csc(-c2ccccc2)n1	1	3
Cc1cc(NC(C)C(=O)N(C)Cc2ccccc2)ccc1Br (stereo not drawn)	2	3
O=C(CCc1cnccn1)NC1CC(=O)N(Cc2cccc3ccccc23)C1 (stereo not drawn)	13	21
O=C(CCc1ccc2c(c1)OCO2)NC1CC(=O)N(CC2CCCCC2)C1 (stereo not drawn)	-7	0
O=C(c1ccco1)N1CCN(c2ncnc3sc4c(c23)CCCCC4)CC1	6	6
Cc1cc(C)n(-c2c3c(nc4c(-c5ccccc5)c(C)nn24)CCC3)n1	8	2
C=CCOCC(O)CN(Cc1c(CC)nn(-c2ccccc2)c1Oc1ccc(F)cc1)CC1CCCO1 (stereo not drawn)	1	-4
CC(NC(=O)C1CCN(S(N)(=O)=O)CC1)c1cccc(OC(F)F)c1 (stereo not drawn)	1	1
COc1cc(C(=O)N2CCN(c3ncccc3C(=O)NCc3cccs3)CC2)cc(Cl)n1	-11	-7
CCSc1nnc(NC(=O)CCc2cc(OC)cc(OC)c2)s1	3	6
Cc1ccc(NC(=O)Cn2nc3ccc(SC4CCCCC4)nn3c2=O)cc1	-2	0
NCc1ccc(F)c(-c2cccc3cnccc23)c1	4	7
CN(C)c1cc(N2CC[C@@](C)(O)[C@@H](Cc3ccccc3)C2)ncn1	-6	-5
CNS(=O)(=O)c1cccc(CNS(=O)(=O)N(C)C2CCCCC2)c1	5	10
Cc1c(CCO)c(=O)oc2n[nH]c(-c3ccccc3)c12	-15	-10
COCCOc1nc(-c2ccco2)n(-c2ccc(NC(=O)c3cccc(OC)c3)cc2)n1	5	0
Cc1ccc2nc(C)c(NC(=O)c3ccc(Cl)nc3)c(=O)n2c1	2	3
COc1cn(CC(=O)Nc2cccc(C)c2)c(CSc2ccc(C)cc2)cc1=O	-9	-4
CSc1ccccc1C(=O)NCc1c(C)ncc2c1CCN(C(=O)C1CCCO1)C2 (stereo not drawn)	6	19
O=C(NCc1cccc(C(F)(F)F)c1)c1ccc(CSc2nnc(-c3ccncc3)n2-c2ccccc2F)cc1	34	26
CCc1ccc(CN(C)C(=O)C2CC(=O)N(c3cccc(O)c3)C2)nc1 (stereo not drawn)	8	10
Cc1nc2c(C#N)c[nH]n2c(=O)c1CC(=O)N1CC(C)CC(C)C1 (stereo not drawn)	-3	-2
Fc1ccc(-c2nnc(-c3ccco3)o2)cc1	6	5
O=C(Nc1cccc(C(=O)N2CCN(c3ncccn3)CC2)c1)C1CCCC1	3	7
Cc1ccc(-n2nc(C(=O)NCc3ccccc3)c(=O)n(Cc3ccccc3C)c2=O)cc1Cl	3	-2
Cc1ccc(-n2ncc3c(=O)n(NC(=O)/C=C/c4ccc([N+](=O)[O-])cc4)cnc32)cc1C	2	3
COc1cc(OC)cc(C(=O)N2CCCC(OCc3ccc(F)cc3F)C2)c1 (stereo not drawn)	-1	0
CCC(C)NC(=O)c1cccc(CNC(=O)Cn2c(=O)oc3ccccc32)c1 (stereo not drawn)	3	0
CC(CNc1ncnc2ccsc12)CN1CCCCC1 (stereo not drawn)	-1	1
CC(=O)Oc1cccc(C(=O)O)c1OC(C)=O	-11	-5
CN(C)c1ccc(C(=O)N2CCN(c3ccc([N+](=O)[O-])cc3)CC2)cc1	-1	0
CCCN(CC(=O)NC(=O)NCC)CC1CCCCO1 (stereo not drawn)	1	4
O=C(CCc1cn[nH]c1)NC1CC(=O)N(C2Cc3ccccc3C2)C1 (stereo not drawn)	-2	-1

Of the compounds above, 4 contain a furan ring, fused or not.
canonical_smiles	NPYLR7 agonist max-min	NPYLR7 agonist
Cc1ccsc1CN1CCN(C)C2(CCN(C(=O)c3ccco3)CC2)C1	-11	-5
O=C(c1ccco1)N1CCN(c2ncnc3sc4c(c23)CCCCC4)CC1	6	6
COCCOc1nc(-c2ccco2)n(-c2ccc(NC(=O)c3cccc(OC)c3)cc2)n1	5	0
Fc1ccc(-c2nnc(-c3ccco3)o2)cc1	6	5

(listing goes on)
canonical_smiles	NPYLR7 agonist max-min	NPYLR7 agonist
COC(=O)c1c(C)nn(Cc2c(C)noc2C)c1C	5	8
CC1CCCN(c2nncc(-c3ccc(Cl)cc3)n2)C1 (stereo not drawn)	-4	0
CN(Cc1c(F)cccc1Cl)C(=O)COc1cc(=O)n2ccccc2n1	0	-6
CCOC(=O)C1(CCCc2ccccc2)CCN(C(=O)Cc2cccnc2)CC1	2	16
CCC(C)n1c(C)cn2c3c(=O)n(CCCc4ccccc4)c(=O)n(C)c3nc12 (stereo not drawn)	5	7
CNC(=O)[C@@H]1CN2CCN(C(C)=O)C[C@@H]2[C@H]1c1ccccc1	11	5
CNS(=O)(=O)c1cccc2cccnc12	6	-1
COc1ccc(N=CC(C#N)c2nc3ccccc3s2)c(OC)c1 (stereo not drawn)	-7	-3
CN(Cc1ccccn1)C(=O)c1cc(COc2ccc3c(c2)OCO3)[nH]n1	-8	-1
CCOc1ccc(SCC(=O)NC(C)c2ccc(S(C)(=O)=O)cc2)cc1 (stereo not drawn)	6	6

Overlap with the part before: 3 entries, then new ones.
canonical_smiles	NPYLR7 agonist max-min	NPYLR7 agonist
COc1ccc(N=CC(C#N)c2nc3ccccc3s2)c(OC)c1 (stereo not drawn)	-7	-3
CN(Cc1ccccn1)C(=O)c1cc(COc2ccc3c(c2)OCO3)[nH]n1	-8	-1
CCOc1ccc(SCC(=O)NC(C)c2ccc(S(C)(=O)=O)cc2)cc1 (stereo not drawn)	6	6
CCC(C)NC(=O)c1c(N)n(/N=C\c2ccccc2O)c2nc3ccccc3nc12 (stereo not drawn)	4	4
O=c1c2nnc3c(-c4ccccc4)cnn3c2ccn1Cc1ccccn1	-1	1
CCOC(=O)c1cc(C(C)(C)C)n(C2CCN(C(=O)C3CCOC3)CC2)n1 (stereo not drawn)	1	2
CCc1nc2c(OCc3ccccc3C(=O)OC)cccn2c1N(C)C(=O)CC(C)C	1	1
Cn1cc(NC(=O)NC2CCN(c3cccc(Cl)c3)C2)cn1 (stereo not drawn)	-24	-21
Cc1cccc2nc(CN3CCNC(=O)CC3c3ccccc3)cn12 (stereo not drawn)	2	1
CCc1nc2ccc(C(=O)NC3CCN(Cc4ccccc4)CC3)cn2c1N(C)Cc1cccs1	-6	4
CC(C)=CC(=O)N(Cc1ccc(C(=O)NCC(F)(F)F)cc1)C1CC1	11	12
Cc1nnc(SCC(=O)NC(C)(C)C)c2c1cnn2-c1ccccc1	-17	-11
CCC(C)c1ccccc1NC(=O)C(C)OC(=O)c1nc(C)n2c1CCCC2 (stereo not drawn)	16	19
CC(C)N(Cc1nccn1C)c1nc2nonc2nc1NCc1cccs1	-5	-1
COc1ccc(N(CN2C(=O)c3ccc([N+](=O)[O-])cc3C2=O)C(C)=O)cc1	-2	0
COCCOCC(=O)Nc1ccc(-c2onc3c2CCc2ccccc2-3)cc1	-2	2
CC(=O)c1cc(C(=O)OCC(=O)Nc2ccc(C(C)C)cc2)c2ccccn12	-3	3
Cc1occc1C(=O)N(C)C(Cc1ccccc1)C1CCN(C(=O)c2n[nH]c3c2CCCC3)CC1 (stereo not drawn)	4	13
O=C(c1ccccc1N1CCC(NS(=O)(=O)c2ccc(F)cc2)CC1)N1CCOCC1	19	22
OCc1cccc(-c2cnc3c(Nc4cccc(OC(F)(F)C(F)F)c4)nccn23)c1	-10	-6
CN(Cc1cccc2ncccc12)C(=O)C(C)(C)NC(=O)c1cccs1	-1	-1
CCC(C(=O)NC1CCN(c2ccccc2C(=O)N2CCOCC2)CC1)c1ccccc1 (stereo not drawn)	1	0
CCc1ccc(CNC(=O)c2cccc(N(C)C)c2)s1	8	9
CCC1(c2ccccc2)NC(=O)N(CN2CCN(Cc3c(F)cccc3Cl)CC2)C1=O (stereo not drawn)	4	5
COc1ccc(OC)c(N2CCN(C(=O)COc3ccc(Cl)cc3)C(C)C2=O)c1 (stereo not drawn)	8	2
COCCNC(=O)Cn1nc2c(c1NC(=O)CSc1ccncc1)CSC2	4	-2
O=C(O)C1CN(c2ncc(Cl)cc2F)CCN1 (stereo not drawn)	-3	-4
Cc1c(Br)c(C(F)(F)F)nn1CC(=O)Nc1c(F)cc(F)cc1Br	-4	1
CCOC(=O)Cn1cc2c(c1-c1ccc(Cl)cc1)c(=O)n(C)c(=O)n2C	-16	-8
O=C(NNC(=O)c1ccccc1Cl)c1csc(N2CCOCC2)n1	4	1
C=CCn1c(COc2cccc3ccccc23)nc2ccccc21	27	20
CCN(CC)C(=O)Oc1ccc2c(ccn2Cc2ccccc2-c2ccccc2)c1-c1ccc(F)c(F)c1	6	13
CC(c1ccc(-c2ccc(Cl)c(C(=O)O)c2)cc1)N1CCOCC1 (stereo not drawn)	6	8

Whole records, quoted from the list. Screens in order: NPYLR7 agonist max-min | NPYLR7 agonist
C=CCn1c(COc2cccc3ccccc23)nc2ccccc21 is listed with 27 | 20
CCC1(c2ccccc2)NC(=O)N(CN2CCN(Cc3c(F)cccc3Cl)CC2)C1=O (stereo not drawn) is listed with 4 | 5
CCOC(=O)Cn1cc2c(c1-c1ccc(Cl)cc1)c(=O)n(C)c(=O)n2C is listed with -16 | -8
CCN(CC)C(=O)Oc1ccc2c(ccn2Cc2ccccc2-c2ccccc2)c1-c1ccc(F)c(F)c1 is listed with 6 | 13
CC(c1ccc(-c2ccc(Cl)c(C(=O)O)c2)cc1)N1CCOCC1 (stereo not drawn) is listed with 6 | 8
